Calb FLC: C. albicans growth inhibition with fluconazole, primary screen, CaCi-2 strain, Alamar Blue fluorescence; C. albicans CaCi-2 (fluconazole-resistant clinical isolate) + fluconazole, 48 h; 300,000 compounds, 0.57% hits; growth inhibition, % (test concentration not listed);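 active = most replicates above 75%; inconclusive = exactly half above 75%; inactive = most below 75%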;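 note: all wells also contain fluconazole at 8 µg/ml as a sub-toxic cotreatment; 0% = median of DMSO wells and 100% = median of geldanamycin control wells; wells of about 8 µL received 7.5 nL stock; the first replicate is given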
Bfl-1 A1 inh: caspase 3/7 activation in MEF A1-2A-BIM cells, primary screen, A1 inhibitor project, cell-based, luminescence, HTS; AID 2462, 2010; Caspase-Glo 3/7 luminescence, 3 h; percent of clofoctol response, vehicle zero; 330,000 compounds, 0.066% hits; caspase activation, % (concentration not given with the values);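 active = over half of replicate activation scores above 10%, or exactly half above 10 with the replicate mean above 10; inconclusive = replicate mean below 10 yet half the replicates above 10; inactive = over half of replicates below 10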;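 note: wells of about 30 µL received 50 nL stock; many hits fall short of the cut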
RanGTP-Imp inh: inhibitors of RanGTP-importin-beta interaction, primary screen, biochemical, FRET, CFP-Ran, YFP-importin-beta, homogeneous. inhibition, % (no concentration beside the values). Ran GTPase (GTP-bound) - importin-beta complex. AID 2216, 2009. cell-free CFP-Ran/YFP-importin-beta FRET ratio. 300,000 compounds, 1.1% hits;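 active = most replicates above 15%; inconclusive = exactly half above 15%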;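 note: 0% = DMSO wells and 100% = Ran loaded with GDP instead of GTP; wells of about 40 µL received 100 nL stock; the first replicate is given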
T cruzi inh: inhibitors of intracellular T. cruzi growth, primary screen, luminescence, NIH3T3 host cells | T. cruzi beta-gal in NIH3T3, 90 h | inhibition, % (test concentration not listed) | 300,000 compounds, 1.4% hits | AID 1885, 2009;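 active = mean inhibition across valid replicates above about 55%, limit read from the data; inconclusive = mean below that limit but half or more replicates reach it; inactive = mean below it, under half of replicates reach it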;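 note: signal also drops with host cell toxicity which is not excluded here; 0% = plate median of DMSO wells and 100% = zero luminescence signal; higher percent means less beta-gal luminescence so fewer parasites; stock transfer was 50 nL into about 50 µL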
rRNA inh HTS: reduced GFP signal of wild-type E. coli, primary screen, bacterial rRNA inhibitor project, GFP/RFP fluorescence, OD600, single point; E. coli WT GFP vs humanized-ribosome RFP mutants, 24 h; active compounds read low; DMSO median 0, no signal -100; GFP signal change (wild-type ribosome), % (concentration not given with the values); 350,000 compounds, 1.6% hits; AID 720706, 2013;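 active = significant combined selectivity score with lowered wild-type GFP, culture density cut under 30%, mutant RFP and density less affected; inactive = any of these conditions unmet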; note: one replicate is shown; some compounds called inactive have numbers as strong as hits
Beta apoptosis: inhibitors of cytokine-induced beta cell apoptosis, primary screen, luminescence. 300,000 compounds, 0.8% hits. AID 435005, 2010. protection from apoptosis, % (concentration not given with the values). INS-1E cytokine-induced death, ATP luminescence, 48 h; percent of positive-control rescue, neutral wells zero;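 active = all replicates at 75% or more, or half of them and the mean; inconclusive = half reach 75% but not the mean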;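 note: 0% = cytokine-treated negative control wells and 100% = positive control rescue; higher means more ATP so stronger rescue from cytokine killing; wells of about 40 µL received 100 nL stock; the first replicate is given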
Vif A3G: inhibitors of Vif binding to APOBEC3G peptide, primary screen, biochemical, TR-FRET, GST-Vif 1-94, biotin-A3G peptide, dose response retest (AID 1117319); Virion infectivity factor (Human immunodeficiency virus type 1 group M subtype B (isolate …; TR-FRET GST-Vif / biotin-A3G peptide binding; higher % means a stronger effect; test concentration not given here; strong numbers were not always called active; inhibition, %; hits with a dose series show IC50 in µM; 260,000 compounds, 0.57% hits;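 active = above the screen mean plus three standard deviations and confirmed in dose response; inconclusive = results disagree or hit not tested in dose response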;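 note: Vif residues 1-94 fused to GST binding biotinylated APOBEC3G peptide 110-148; 0% = full assay without inhibitor and 100% = GST in place of GST-Vif; retest series ran down from 100 µM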
AF4-AF9 inh: inhibitors of AF4 peptide binding to AF9, primary screen, biochemical, AlphaScreen, biotin-AF4 peptide, FLAG-AF9, single point; inhibition, % at 10 µM; 350,000 compounds, 0.47% hits; AID 651704, 2012;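 active = every replicate reaching a set inhibition limit, whatever the replicate mean, cut at about 25% in these data; inconclusive = mean inhibition reaches that limit but some replicates miss it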;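 note: 0% = plate neutral control median and 100% = total signal loss; the record names both 10 and 1 µM as test concentration; the first replicate is given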
Target sequence (P42568 whole entry, looked up): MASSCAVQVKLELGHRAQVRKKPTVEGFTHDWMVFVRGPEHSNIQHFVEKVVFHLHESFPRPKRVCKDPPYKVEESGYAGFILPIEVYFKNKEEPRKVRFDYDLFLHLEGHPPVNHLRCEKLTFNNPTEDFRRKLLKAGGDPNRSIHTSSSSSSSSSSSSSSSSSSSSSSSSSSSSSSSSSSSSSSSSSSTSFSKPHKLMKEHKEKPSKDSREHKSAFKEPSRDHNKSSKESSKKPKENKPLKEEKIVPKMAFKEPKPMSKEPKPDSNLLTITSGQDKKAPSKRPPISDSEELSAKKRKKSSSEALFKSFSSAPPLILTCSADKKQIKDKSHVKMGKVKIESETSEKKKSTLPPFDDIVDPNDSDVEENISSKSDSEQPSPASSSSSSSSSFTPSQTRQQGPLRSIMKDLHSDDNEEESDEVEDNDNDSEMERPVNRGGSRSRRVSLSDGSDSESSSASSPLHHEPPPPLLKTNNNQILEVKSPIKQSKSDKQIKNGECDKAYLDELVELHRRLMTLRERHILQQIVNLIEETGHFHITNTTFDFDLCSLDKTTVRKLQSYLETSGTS
rRNA inh HTS OD600: also measured in rRNA inh HTS; calls as there; OD600 change, %; measured here: OD600 growth;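 optical density of the mix in the first replicate; 0 = DMSO median and -100 = no signal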
rRNA inh HTS RFP: further read-out of rRNA inh HTS, marked with its call; RFP signal change, %; measured here: RFP humanized mutant strains;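 first replicate; 0 = DMSO median and -100 = no signal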
The depositor's hits bear a star; ? = inconclusive; / = not tested or not shown. An excerpt. The share of hits here may be higher or lower than overall.

Screens in order – Calb FLC	Bfl-1 A1 inh	RanGTP-Imp inh	T cruzi inh	rRNA inh HTS	rRNA inh HTS OD600	rRNA inh HTS RFP	Beta apoptosis	Vif A3G	AF4-AF9 inh
1: Nn1c(SCC(=O)Nc2ccc(N3CCOCC3)cc2)nnc1-c1cccc(F)c1
 : /	-0.5	/	/	20	16	2.3	-5	/	2.3
2: O=C(CSc1nnc(-c2cccs2)n1-c1ccccc1)N1CCOCC1
 : 1	0.4	0.7	1	/	/	/	-2	5%	/
3: CS(=O)(=O)N(CCc1ccccc1)CC(=O)NCc1ccc2c(c1)OCO2
 : -21	0.5	-3.0	-7	/	/	/	-1	1%	/
4: COc1ccc(OCC(=O)N2CCCC(CO)(CCOc3ccccc3)C2)cc1 (stereo unspecified)
 : 2	-0.4	-2.2	7	-1	-17	-0.7	-3	3%	0.5
5: CCOC(=O)c1cc2c(C(F)(F)F)cc(-c3ccccc3)nc2o1
 : -10	-1.4	-1.8	1	/	/	/	/	12%	/
6: CCC1CCCCN1C(=O)CSc1nc2c(c(=O)n(C)c(=O)n2C)n1C (stereo unspecified)
 : 7	0.4	-1.5	-8	-3	3	3.3	1	/	0.1
7: CC(C)Cn1c(-c2ccc(C#N)cc2)nc2c1c(=O)[nH]c(=O)n2CC(C)C
 : 14	-0.3	-3.5	-7	/	/	/	22	-3%	/
8: CCS(=O)(=O)N1CCN(C(=O)c2cccc3ccccc23)CC1
 : 7	-0.3	1.4	-14	8	-6	2.2	-5	48%	-0.3
9: C=CCNC(=S)Nc1ccc(F)cc1F
 : -14	-0.6	-1.6	-16	3	6	-0.4	-5	-2%	-3.2
10: COc1ccccc1N1CCN(C(=O)C(=O)N/N=C/c2ccccc2F)CC1
 : -6	-0.8	2.5	0	8	14	6.1	-19	27%	8.1
11: O=C(COc1cccc(Cl)c1)NCc1ccccc1
 : -3	0.1	-0.5	0	4	-4	-0.9	/	13%	-0.6
12: OC1(c2cccc(F)c2)CCN(Cc2ccncc2)CC1
 : 2	0.0	1.9	-21	/	/	/	2	-7%	/
13: COc1ccc(NC(=O)c2cc(F)cc(F)c2)cc1Cl
 : 18	0.1	0.7	-4	6	10	-3.4	3	-5%	/
14: CCN(Cc1ccncc1)C(=O)CCc1ccccc1
 : 4	0.4	6.4	-2	19	11	1.6	1	/	2.9
15: COc1cc(NC(=O)COC(=O)CO/N=C(\C)c2ccc3c(c2)OCO3)cc(OC)c1OC
 : -5	-0.4	2.1	-11	10	11	3.3	-2	-4%	-0.7
16: Cc1cccc(OC2CCN(Cc3nc(CC4CC4)no3)CC2)c1
 : ?	-0.7	-0.2	-3	-13	-10	-2.3	-3	/	1.0
17: C=CCN(CC=C)S(=O)(=O)c1ccc(C(=O)Nc2nc3c(s2)CCc2ccccc2-3)cc1
 : -3	0.8	?	15	/	/	/	-11	-5%	/
18: Cc1sc2ncn(-n3c(C)ccc3C)c(=O)c2c1C
 : -1	-0.3	2.3	5	/	/	/	-3	6%	/
19: CN(C)c1cc(-c2ccccc2)nc(-c2ccccc2)n1
 : 8	0.1	-3.8	-1	17	13	5.9	-20	/	-0.3
20: COC(=O)CN(c1ccc2c(c1)OCO2)S(C)(=O)=O
 : 21	0.0	-0.4	-11	-4	-6	-2.1	-3	?	/
21: CCCCNC(=O)c1cn(-c2ccc(OCC)cc2)c(=O)c2cc(OC)c(OC)cc12
 : 1	0.2	7.7	3	/	/	/	-2	-36%	/
22: COc1cccc(CN2CCNC(=O)C2CC(=O)N(C)Cc2cnccn2)c1OC (stereo unspecified)
 : -1	1.8	-5.0	-5	19	7	-0.6	-2	11%	-0.5
23: O=C1NC(=O)C2(CCc3ccccc32)N1 (stereo unspecified)
 : 2	0.1	0.2	2	/	/	/	3	4%	/
24: COc1ccc(C2=NO[C@@](CC(=O)O)(C(=O)Nc3ccc4c(c3)OCCO4)C2)cc1
 : -2	-0.7	1.0	-5	4	8	1.8	-4	-3%	0.0
25: Cc1ccc(S(=O)(=O)/C(C#N)=C/c2c[nH]c3ccccc23)cc1
 : 6	-0.1	?	-6	/	/	/	-7	-4%	/
26: CCc1nnc(SCCSc2nnc(CC)n2N)n1N
 : /	1.1	-5.2	12	/	/	/	-2	-8%	/
27: O=C(O)c1ccc(Nc2nc(-c3cccnc3)cs2)cc1
 : 0	-6.6	-2.2	9	2	4	21	-7	-5%	-60
28: CC(C)CCn1c(NCCN(C)C)nc2c1c(=O)[nH]c(=O)n2C
 : 0	0.7	2.1	17	/	/	/	-5	14%	/
29: COc1ccccc1CNC(=O)c1cc2sccc2n1C
 : 1	-0.2	-2.1	9	-20*	-14*	1.6*	-2	12%	5.3
30: Cc1c(-c2ccccc2)oc2c(C(=O)OCC(=O)Nc3cccc(F)c3)cccc2c1=O
 : 7	-0.1	1.0	-4	8	1	-0.8	-6	-12%	-0.7
31: CCn1cc(C(=O)NCCCOC)c(=O)c2cc(S(=O)(=O)N3CCC(C)CC3)ccc21
 : 3	-0.3	6.0	-5	-4	0	-1.3	3	/	0.6
32: COC(=O)COc1ccc(S(=O)(=O)N2CCOCC2)cc1C
 : 0	-0.1	-3.5	-20	/	/	/	-11	2%	/
33: Cc1ccc(S(=O)(=O)Cn2nnnc2C(CC(C)C)N2CCN(c3ccc(F)cc3)CC2)cc1 (stereo unspecified)
 : -14	-0.5	-2.1	43	/	/	/	-1	?	/
34: CCOC(=O)C1CCCN(C(=O)c2cc(-c3ccc(C)cc3)nc3ccccc23)C1 (stereo unspecified)
 : -23	-0.1	1.4	15	-22	-23	22	-5	10%	-7.1
35: Nc1nc(NCc2ccco2)nc(N2CCCCCC2)c1[N+](=O)[O-]
 : -14	-1.0	-0.7	-6	/	/	/	-3	1%	/
36: Cc1ccc2nc(CSc3nnc(Cc4cccs4)n3C3CCCCC3)cc(=O)n2c1
 : 2	0.7	-1.2	5	/	/	/	-31	0%	/
37: Cc1ccc(S(=O)(=O)N2CCCCC2)cc1NC(=O)CSc1nnc(C2CC2)n1C
 : /	-0.1	/	/	1	1	-2.9	1	/	-4.4
38: Nc1nc(COC(=O)C2CCN(C(=O)c3ccc(Cl)cc3)CC2)nc(Nc2ccccc2)n1
 : /	-0.3	/	/	2	10	-1.7	-12	-8%	-3.5
39: O=C(c1ccc(Cl)c(F)c1F)N1CCCC1
 : -3	-0.1	-3.4	2	/	/	/	-4	1%	/
40: Cc1ccc(Cl)cc1NC(=S)N1CCC(c2ccccc2)C1 (stereo unspecified)
 : -8	-0.3	-0.8	0	-24	-17	-12	-5	-5%	-0.1
41: OCc1nc2ccccc2n1CCOc1ccccc1
 : 0	1.0	-2.0	-6	-27	-27	-2.2	/	/	-1.5
42: CC1=C(C(=O)OCc2ccccc2)C(c2ccc(Cl)cc2)NC(=O)N1CCCCCC(=O)O (stereo unspecified)
 : -2	1.0	4.8	2	3	8	3.5	2	6%	1.4
43: CC(C(=O)Nc1ncc2c(n1)CC(C)(C)CC2=O)N1C(=O)c2ccccc2C1=O (stereo unspecified)
 : -2	0.7	1.3	-12	/	/	/	0	4%	/
44: CCc1nnc(NC(=O)CSc2ccc(-c3ccc(-n4cccn4)cc3)nn2)s1
 : 15	2.5	6.4	-8	11	9	-5.3	/	2%	-7.6
45: CC(=O)c1cccc(NC(=O)c2nccnc2C(=O)O)c1
 : 28	0.1	4.3	-4	/	/	/	5	3%	/
46: CCn1c2ccccc2c2cc(NS(=O)(=O)c3ccccc3C)ccc21
 : 3	0.1	-3.3	10	/	/	/	-2	1%	/
47: CCOc1cc(/C=C2\C(=O)NN(c3ccccc3)C2=O)cc([N+](=O)[O-])c1O
 : 95*	0.0	1.8	-3	-8	-7	-2.3	-1	30%	0.3
48: COc1ccc2nc(NC(=O)c3c(C)noc3C)sc2c1
 : /	-6.3	/	/	0	-9	3.0	10	-13%	0.9
49: N=c1c2c3c(sc2nc2n1CCCCC2)CCCC3
 : -1	0.1	1.0	19	/	/	/	-1	15%	/
50: CN1CCC(=NNC(=O)C(=O)NC2CCCCC2)CC1
 : -9	0.1	2.2	-23	/	/	/	1	-3%	/
51: C=CCOc1ccc(/C=C2\C(=N)N3N=C(S(=O)(=O)CC)SC3=NC2=O)cc1OC
 : -5	1.1	6.0	-13	7	-1	1.0	-9	28%	-0.8
52: CCCNC(=S)N1CCN(C(c2ccccc2)c2ccccc2)CC1
 : 1	0.2	4.4	7	/	/	/	1	/	/
53: Cc1nc(/N=C(\N)NC(=O)c2ccccc2)nc2ccccc12
 : 31	1.1	-3.4	5	/	/	/	-2	-3%	5.8
54: Cc1nn(-c2cc(N3CCNCC3)ccc2[N+](=O)[O-])c(=O)c2ccccc12
 : 1	0.1	2.0	18	/	/	/	1	14%	/
55: O=C(N[C@H]1CCC(=O)N([C@H](CSc2ccc(Br)cc2)Cc2ccccc2)CC1)OCc1ccccc1
 : /	0.3	/	/	11	3	-0.9	4	/	-23
56: Cc1c(Cl)cccc1NC(=S)N(CCCN1CCOCC1)Cc1ccco1
 : -8	0.2	1.2	3	1	-1	4.0	-2	-3%	3.1
57: COc1ccc(C(=O)c2ccc(Cl)cc2Cl)cc1
 : -1	1.4	2.6	7	/	/	/	-6	-4%	/
58: COc1ccc(/C=C2/SC(=O)N(NS(=O)(=O)c3ccccc3)C2=S)cc1OC
 : 2	0.6	3.7	8	-20	-17	-7.9	4	?	7.1

Another view of 4 compounds above.
cpd | molecule | Calb FLC | Bfl-1 A1 inh | RanGTP-Imp inh | T cruzi inh | rRNA inh HTS | rRNA inh HTS OD600 | rRNA inh HTS RFP | Beta apoptosis | Vif A3G | AF4-AF9 inh
1 | Nn1c(SCC(=O)Nc2ccc(N3CCOCC3)cc2)nnc1-c1cccc(F)c1 | / | -0.5 | / | / | 20 | 16 | 2.3 | -5 | / | 2.3
5 | CCOC(=O)c1cc2c(C(F)(F)F)cc(-c3ccccc3)nc2o1 | -10 | -1.4 | -1.8 | 1 | / | / | / | / | 12% | /
9 | C=CCNC(=S)Nc1ccc(F)cc1F | -14 | -0.6 | -1.6 | -16 | 3 | 6 | -0.4 | -5 | -2% | -3.2
20 | COC(=O)CN(c1ccc2c(c1)OCO2)S(C)(=O)=O | 21 | 0.0 | -0.4 | -11 | -4 | -6 | -2.1 | -3 | ? | /

High-throughput results: PubChem, several laboratories
